Compound activity deposited in PubChem BioAssay by ICCB-Longwood Screening Facility, Harvard Medical School.
GIV-Gai inh – inhibitors of GIV GBA-motif binding to rat Galpha-i3 | P08753 | Galpha-i3/FITC-GIV peptide fluorescence polarization, 90 min; stronger effect = lower value; scaled: aluminum fluoride 0%, vehicle 100% | percent of control (FP), % (test concentration not listed) | 210,000 tested, 0.42% active;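 active means replicate mean at 85% of control or lower, very high polarization wells dropped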;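 further: wells of about 15 µL received 100 nL stock; the first replicate is given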
Target sequence (P08753 whole entry, looked up): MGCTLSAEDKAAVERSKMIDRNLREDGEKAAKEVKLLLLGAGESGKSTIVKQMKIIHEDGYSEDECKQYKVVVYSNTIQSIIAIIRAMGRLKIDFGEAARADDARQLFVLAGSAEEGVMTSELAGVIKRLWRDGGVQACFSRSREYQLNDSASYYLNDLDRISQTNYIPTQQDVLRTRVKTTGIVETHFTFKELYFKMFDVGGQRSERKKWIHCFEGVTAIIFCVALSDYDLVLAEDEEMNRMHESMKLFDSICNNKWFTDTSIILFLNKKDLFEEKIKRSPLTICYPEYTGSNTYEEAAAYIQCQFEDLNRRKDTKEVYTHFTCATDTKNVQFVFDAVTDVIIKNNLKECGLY
Sa growth 42C – blocks Staphylococcus aureus growth; 170,000 tested, 0.53% active; AID 720641; relative growth, % (no concentration beside the values); S. aureus RN4220 growth, OD600, 20 h, 42 °C; stronger effect = lower value;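 active means growth at 42 °C up to 50% and 20 or more points under that at 30 °C, or under 10% at both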;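 further: 300 nL library stock went into each well; scaled to the means of positive and negative controls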
HCMV UL50-53 inh – cytomegalovirus nuclear egress complex inhibition; HTRF UL50-UL53 interaction, normalized percent inhibition; inhibition, % (concentration not given with the values); 190,000 tested, 0.15% active; AID 1918969;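 active means both replicates at 50% or more, plus weaker picks with an unusually low signal ratio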;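 further: stock transfer was 100 nL into about 20 µL; 0% = negative control wells and 100% = wells with untagged competitor protein; inactives centre near -12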
Sa growth 42C second temp – also measured in Sa growth 42C; calls as there; relative growth, %; measured here: growth at 30 °C;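 optical density after 20 h as mean of two plates; 100% = untreated growth and lower means inhibition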
* marks the source's active call; other numbers are inactive results; · = not tested or not shown; & = joins results of further samples.

no. | molecule | GIV-Gai inh | Sa growth 42C | Sa growth 42C second temp | HCMV UL50-53 inh
1 | N#CC(Nc1cc(Cl)cc(Cl)c1)c1ccccc1 (stereo unspecified) | 99 | 90 | 72 | -1
2 | O=c1c2ccccc2ncn1Cc1ccccc1 | · | 97 | 82 | -32
3 | CC(C)c1ccc(NC(=O)c2cc(S(=O)(=O)N3CCCCC3)cn2C)cc1 | 100 | 87 | 97 | ·
4 | Cc1ccn2cc(-c3cccs3)cc2c1 | 110 | 146 | 57 | ·
5 | COc1ccc(NC(=O)C2CCN(S(=O)(=O)c3cn(C)cn3)CC2)c(OC)c1 | 105 | · | · | -24
6 | CCCSc1nc2c(c(=O)n1-c1ccccc1)SCC2 | 105 | 97 | 84 | -38
7 | Cc1cc(NC(=O)CC(C)C)n(-c2ncnc3c2cnn3-c2ccc(F)cc2)n1 | 100 | · | · | 5
8 | CCOc1ccc(-c2cccc(NS(=O)(=O)c3ccc(C)s3)c2)nn1 | 108 | 113 | 92 | ·
9 | COc1ccc(-n2c(C)cc(CNC(=O)NC3CCCCC3)c2C)cc1 | 106 | · | · | 11
10 | Cn1nccc1NS(=O)(=O)c1ccc(NC(=O)C(F)(F)F)cc1 | 101 | 66 | 36 | -7
11 | CCOc1ccc(-c2cc3c(=O)n(CC(=O)NCc4ccccc4)ccn3n2)cc1 | 105 | 86 | 85 | ·
12 | O=C(NCc1ccsc1)c1ccc(N2CCOCC2)nc1 | 101 | 98 | 96 | -2
13 | COc1cccc(CNC(=O)c2cc3n(n2)CCCN(Cc2ccc(C)cc2)C3=O)c1OC | 98 | 91 | 90 | ·
14 | COc1ccc(CC(=O)NCCc2csc(-c3ccc(C(F)(F)F)cc3)n2)cc1 | 105 | 107 | 94 | ·
15 | Cc1cccc(NC(c2ccncc2)c2ccc3cccnc3c2O)c1 (stereo unspecified) | 99 | · | · | -85
16 | CCc1ccc(NC(=O)c2sc(-n3nc(C)c(Cc4ccc(OC)cc4)c3C)nc2C)cc1 | 105 | 98 | 103 | 14
17 | O=C(COC(=O)Cc1c[nH]c2ccccc12)NCc1ccco1 | · | 85 | 89 | -17
18 | CC1=C(C)CC2C(=O)N(c3ccc(N4CCOCC4)cc3)C(=O)C2C1 (stereo unspecified) | · | 102 | 97 | 11
19 | O=C(CCCOc1ccccc1)Nc1ccccc1 | 104 | 82 | 89 | -26
20 | CCOC(=O)c1c(S(=O)(=O)N2CCCC(C(=O)Nc3cccc(CC)c3)C2)c(C)n(CC)c1C (stereo unspecified) | 107 | 96 | 83 | ·
21 | COc1ccc(CC(=O)Nc2cccc(-c3ccc(S(C)(=O)=O)nn3)c2)cc1 | 103 | 103 | 80 | -32
22 | N#Cc1ccccc1Sc1ccccc1C(=O)N(CC1CCCO1)C1CCS(=O)(=O)C1 (stereo unspecified) | · | 106 | 93 | -5
23 | O=C1CSC(c2cn(-c3ccccc3)nc2-c2ccccc2)N1CCCl (stereo unspecified) | · | 121 | 82 | -29
24 | COc1ccccc1OCCC(=O)C(C#N)c1nc2ccccc2[nH]1 (stereo unspecified) | · | 95 | 95 | -22
25 | O=C(OCCN1CCN(c2cc(C(F)(F)F)nc3c(Cl)cccc23)CC1)C1CC1 | 98 | 97 | 82 | -7
26 | O=C(Nc1ccc2nc(N3CCOCC3)cc(C(=O)O)c2c1)c1ccc(Br)cc1 | 111 | · | · | -21
27 | O=S(=O)(c1ccc(F)cc1)n1nc(C(F)(F)F)c2cnccc21 | 106 | 104 | 92 | -23
28 | O=C(Nc1cccc(C(=O)OCc2cc(=O)n3ccsc3n2)c1)c1ccc(F)cc1 | 109 | 107 | 101 | ·
29 | O=C(/C=C/c1ccco1)NC1CCCC1 | · | 68 | 88 | -25
30 | CCOc1ccc(N2C(=O)CC(N(Cc3ccc(Cl)cc3)C(=O)c3ccc(Cl)cc3)C2=O)cc1 (stereo unspecified) | · | 97 | 84 | -6
31 | CCOCC(O)CN (stereo unspecified) | 103 | 92 | 93 | -22
32 | COc1ccc2[nH]cc(CCNc3ccc(S(=O)(=O)c4ccc(Cl)cc4)nn3)c2c1 | 100 | · | · | -26
33 | CNc1nc(OCC(F)(F)C(F)F)nc(N(c2ccccc2)c2ccccc2)n1 | 101 | 72 | 97 | 13
34 | CN(C)C(=O)CN1c2cccc3cccc(c23)S1(=O)=O | · | 82 | 83 | -52
35 | CCC(=O)NC1=NC(=O)/C(=C/c2ccc(-c3ccccc3F)o2)S1 | 104 | · | · | -6
36 | O=C1OCCC1OC(=O)C(c1ccccc1)c1ccccc1 (stereo unspecified) | · | 102 | 93 | -19
37 | COc1cccc(C2CC(=O)N(c3ccccc3)C3=C2C(=O)CCC3)c1OC (stereo unspecified) | 101 | 89 | 86 | -7
38 | CCOC(=O)CN1CCCCCC1=O | · | 93 | 97 | -18
39 | Cc1cc2nc(Cc3ccc(OC(F)F)cc3)c(=O)n(C)c2cc1C | 103 | · | · | -28
40 | CC(=O)N1c2nc(C(=O)N3CCOCC3)nn2C2(CCCCC2)[C@@H]2CCCC[C@@H]21 | 106 | · | · | -20
41 | O=C(CN(c1cc(C(F)(F)F)ccc1Cl)S(=O)(=O)c1ccccc1)NCCc1ccccc1 | 103 | 99 | 85 | -19
42 | Cc1cccc(NC(=O)N2CCOc3ccc(Cl)cc32)c1 | 105 | 118 | 100 | ·
43 | CCOC(=O)c1cc(NC(=O)CSc2ncnc3sc(C)c(C)c23)cc(C(=O)OCC)c1 | 103 | · | · | -2
44 | CCC(SC1=NC(=O)C(c2ccccc2)C(=O)N1)C(=O)Nc1sc2c(c1C#N)CCCC2 (stereo unspecified) | · | 82 | 104 | 4
45 | O=S(=O)(c1ccc2c(c1)CCCC2)N1CC(OCc2ccc(Cl)cc2)C1 | 97 | · | · | -1
46 | CSc1nnc(-c2ccncc2)n1C | 103 | 114 | 87 | -4
47 | N#CCOC(=O)c1ccc2c(c1)S(=O)(=O)c1ccccc1C2=O | · | 88 | 91 | -122
48 | COc1cccc(CNC(=O)c2cccc(N3CCCS3(=O)=O)c2)c1 | 107 | 111 | 89 | ·
49 | COc1ccc(NC(=O)Cn2c(-c3ccccc3Cl)nc3sc(C)c(C)c3c2=O)cc1Cl | 105 | · | · | 1
50 | O=C(NCCCO)c1cnc2sc3c(n2c1=O)CCCC3 | 105 | · | · | -28
51 | C=CCOC(=O)Oc1ccc2c(=O)c(Oc3ccccc3Cl)coc2c1 | 111 | 97 | 74 | 4
52 | CN1C(=O)Cc2cc(S(=O)(=O)N3CCN(c4ccccc4F)CC3)ccc21 | 106 | 103 | 90 | ·
53 | COc1ccccc1N1CCN(C(=O)C2CCCN(S(=O)(=O)c3ccc4c(c3)CCCN4C(C)=O)C2)CC1 (stereo unspecified) | 103 | 92 | 84 | ·
54 | O=C(Nc1cccc(Cl)c1Cl)N1CCCN(Cc2ccc(F)cc2)CC1 | 106 | 104 | 89 | -19
55 | CCN(C(=O)C12CCC(C)(C(=O)C1)C2(C)C)c1ccccc1 (stereo unspecified) | 108 | 115 | 105 | -22
56 | COc1cccc(-c2cc(C(=O)Nc3cnn(C45CC6CC(CC(C6)C4)C5)c3)on2)c1 | 98 | 94 | 78 | -27
57 | C=CCN(Cc1nc(-c2cccc(C)c2)no1)C(=O)Nc1ccccc1C | 104 | · | · | -6
58 | CC1CC(CC(=O)NNc2nc(-c3ccccc3)cs2)C(=O)O1 (stereo unspecified) | 104 | 97 | 85 | -20
59 | CC(C)(C)C(=O)Nc1cc(-c2cccc(Br)c2)nn1-c1ccccc1 | 99&103 | 80 | 65 | ·
60 | COc1ccc2c(c1)NC(c1cccnc1)=NC(c1ccccc1)=N2 | 102 | 89 | 86 | -36

Later entries
no. | molecule | GIV-Gai inh | Sa growth 42C | Sa growth 42C second temp | HCMV UL50-53 inh
61 | O=c1ccc2ccc(O)cc2o1 | 96 | 101 | 89 | -34
62 | C=CCN(CC=C)Cc1ccc(C(=O)OC)o1 | 80* | 100 | 106 | 5
63 | CCc1nnc2c3ccccc3nc(Nc3cc(C)c(Cl)cc3OC)n12 | 99 | · | · | -6
64 | Cc1cc(Nc2ncc(Cl)cc2Cl)n(-c2ccccn2)n1 | · | 92 | 90 | -27
65 | O=C(NC1CC1)c1cccc(C(F)(F)F)c1 | 105 | 89 | 84 | -5
66 | Cc1cc(C)c(C(=O)N2Cc3ccccc3NC2=S)c(C)c1 | · | 95 | 72 | -15
67 | O=C(NCCCn1ccnc1)C1(c2cccs2)CCOCC1 | 104 | 88 | 89 | -15
68 | CC(C)CCNC(=O)Cc1ccc(-n2c(=S)[nH]c3ccccc3c2=O)cc1 | 110 | 88 | 87 | ·
69 | S=C(NCc1ccccc1)Nc1cccc2ccccc12 | · | 122 | 67 | -27
70 | CCc1cc(C(=O)Cc2nc(C)cs2)c(O)cc1O | · | 95 | 90 | -60
71 | CCN(CC(=O)NC1CCCCCC1)S(=O)(=O)c1ccc(Cl)cc1 | 101 | 113 | 95 | -3
72 | CCOC(=O)c1c(NC(=O)Cc2coc3cc(C)cc(C)c23)sc2c1CCC2 | 110 | 97 | 92 | 1
73 | CC(=O)c1ccc(NC(=O)c2cc(C)nc3c2c(C)nn3-c2ccc(C)cc2)cc1 | 103 | 87 | 91 | ·
74 | O=C(O)c1cc(-c2cccs2)nn1-c1ccccc1 | · | 119 | 90 | -33
75 | COc1ccc2oc(C(=O)OCC(=O)c3ccc4c(c3)OCO4)c(C)c2c1 | · | 91 | 89 | -20

An excerpt from above in order of their number in GIV-Gai inh, falling.
| item | structure | GIV-Gai inh |
| --- | --- | --- |
| 72 | CCOC(=O)c1c(NC(=O)Cc2coc3cc(C)cc(C)c23)sc2c1CCC2 | 110 |
| 67 | O=C(NCCCn1ccnc1)C1(c2cccs2)CCOCC1 | 104 |
| 73 | CC(=O)c1ccc(NC(=O)c2cc(C)nc3c2c(C)nn3-c2ccc(C)cc2)cc1 | 103 |
| 63 | CCc1nnc2c3ccccc3nc(Nc3cc(C)c(Cl)cc3OC)n12 | 99 |

Next part.
no. | molecule | GIV-Gai inh | Sa growth 42C | Sa growth 42C second temp | HCMV UL50-53 inh
76 | O=C(NCc1ccc(Cl)cc1)NC1CCCCC1 | · | 103 | 96 | 11
77 | Cn1nnnc1SCc1cccc(S(=O)(=O)N2CCOCC2)c1 | · | 103 | 106 | 11
78 | COc1ccc(NC(=O)Cn2nc3c(cc2=O)CCCC3)cc1Cl | 102 | 90 | 84 | ·
79 | COc1ccc(CCNC(=O)c2ccc(Cn3c(=O)c4cccn4c4cccnc43)cc2)cc1OC | 108 | 107 | 76 | ·
80 | S=C1NC(c2ccccc2)=CC(c2ccsc2)S1 (stereo unspecified) | 105 | 71 | 70 | -9
81 | CN(C)c1ccc2cccc(O)c2n1 | 112 | 110 | 86 | -23
82 | O=S(=O)(c1ccc(Cl)cc1)N(Cc1ccco1)CC(O)Cn1c2ccccc2c2ccccc21 (stereo unspecified) | 105 | 101 | 68 | -20
83 | COc1ccc(NC(=O)CC2SC(=Nc3ccccc3)N(c3ccccc3)C2=O)cc1 (stereo unspecified) | 102 | 116 | 86 | ·
84 | CCC(C)(C)NC(=O)C1CCCN(S(=O)(=O)c2cc3c(cc2C)NC(=O)C(C)O3)C1 (stereo unspecified) | 104 | · | · | -15
85 | COC(=O)c1ccc(S(=O)(=O)NC(C)(C)C)n1C | 105 | 107 | 87 | -31
86 | O=S(=O)(c1ccc(F)cc1)N(Cc1nc(-c2ccc(Cl)cc2)no1)C1CCCCC1 | 105 | 101 | 83 | -23

Among those listed so far, 14 have fluorine:
no. | molecule | GIV-Gai inh | Sa growth 42C | Sa growth 42C second temp | HCMV UL50-53 inh
7 | Cc1cc(NC(=O)CC(C)C)n(-c2ncnc3c2cnn3-c2ccc(F)cc2)n1 | 100 | · | · | 5
10 | Cn1nccc1NS(=O)(=O)c1ccc(NC(=O)C(F)(F)F)cc1 | 101 | 66 | 36 | -7
14 | COc1ccc(CC(=O)NCCc2csc(-c3ccc(C(F)(F)F)cc3)n2)cc1 | 105 | 107 | 94 | ·
25 | O=C(OCCN1CCN(c2cc(C(F)(F)F)nc3c(Cl)cccc23)CC1)C1CC1 | 98 | 97 | 82 | -7
27 | O=S(=O)(c1ccc(F)cc1)n1nc(C(F)(F)F)c2cnccc21 | 106 | 104 | 92 | -23
28 | O=C(Nc1cccc(C(=O)OCc2cc(=O)n3ccsc3n2)c1)c1ccc(F)cc1 | 109 | 107 | 101 | ·
33 | CNc1nc(OCC(F)(F)C(F)F)nc(N(c2ccccc2)c2ccccc2)n1 | 101 | 72 | 97 | 13
35 | CCC(=O)NC1=NC(=O)/C(=C/c2ccc(-c3ccccc3F)o2)S1 | 104 | · | · | -6
39 | Cc1cc2nc(Cc3ccc(OC(F)F)cc3)c(=O)n(C)c2cc1C | 103 | · | · | -28
41 | O=C(CN(c1cc(C(F)(F)F)ccc1Cl)S(=O)(=O)c1ccccc1)NCCc1ccccc1 | 103 | 99 | 85 | -19
52 | CN1C(=O)Cc2cc(S(=O)(=O)N3CCN(c4ccccc4F)CC3)ccc21 | 106 | 103 | 90 | ·
54 | O=C(Nc1cccc(Cl)c1Cl)N1CCCN(Cc2ccc(F)cc2)CC1 | 106 | 104 | 89 | -19
65 | O=C(NC1CC1)c1cccc(C(F)(F)F)c1 | 105 | 89 | 84 | -5
86 | O=S(=O)(c1ccc(F)cc1)N(Cc1nc(-c2ccc(Cl)cc2)no1)C1CCCCC1 | 105 | 101 | 83 | -23
